Screening data from PubChem.
VCAM-1 augmentation: enhancers of VCAM-1 display on endothelial cells, imaging, high-content imaging, pooled HUVEC, TNFa stimulus (AID 457). Pooled HUVEC, TNFa-induced VCAM-1 immunofluorescence imaging; hits of this screen are not shown here. calls only. 10,000 compounds, 0.2% hits;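 active = a top-ranked rise in VCAM-1 staining upheld on image or statistical review; inactive = the rest, including candidates rejected on review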;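 also: compounds tested at 5 µM in the well; cells exposed to compound for 24 hours before fixing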
FPRL1 ligand: human FPRL1 ligands by binding competition, primary screen, cell-based, FPR counter-screen, flow cytometry. N-formyl peptide receptor 2 (Homo sapiens), P25090. inhibition, %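 (tested at 6.7 µM)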. 24,000 compounds, 0.3% hits. AID 441, 2006. FPRL1-expressing cells, fluorescent ligand binding inhibition;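 also: 0% = buffer alone and 100% = receptor blocker peptide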
Target sequence (P25090 whole entry, looked up): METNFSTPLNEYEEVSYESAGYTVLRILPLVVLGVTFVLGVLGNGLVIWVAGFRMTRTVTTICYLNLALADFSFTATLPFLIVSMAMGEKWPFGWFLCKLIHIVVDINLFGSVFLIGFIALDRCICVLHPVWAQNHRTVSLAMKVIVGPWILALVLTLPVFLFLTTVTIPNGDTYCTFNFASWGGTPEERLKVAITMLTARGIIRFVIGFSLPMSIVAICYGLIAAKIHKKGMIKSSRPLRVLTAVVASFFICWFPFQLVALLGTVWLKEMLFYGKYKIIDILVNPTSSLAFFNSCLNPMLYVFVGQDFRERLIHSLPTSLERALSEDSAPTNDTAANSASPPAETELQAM
VCAM-1 inhibition: inhibitors of TNFa-induced VCAM-1 surface display, cell-based, plate reader, pooled HUVEC, TNFa stimulus (AID 454); HUVEC TNFa-induced VCAM-1 surface immunofluorescence, plate reader; numbers were filed only for top-ranked candidate wells; inhibition, % at 5 µM; 10,000 compounds, 0.2% hits;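 active = compound among top-ranked inhibitors of TNF-induced VCAM-1 adhesion protein staining, with the hit upheld by image or statistical review; inactive = the rest, including hits rejected on review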;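 also: 0% = TNFa with vehicle and 100% = cells without TNFa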
FPR ligand: human FPR ligands by binding competition, primary screen, cell-based, FPRL1 counter-screen, flow cytometry. fMet-Leu-Phe receptor (Homo sapiens), P21462. FPR-expressing cells, fluorescent ligand binding. inhibition, %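 (tested at 6.7 µM)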. 24,000 compounds, 0.74% hits. AID 440, 2006;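 also: 0% = buffer wells and 100% = receptor blocker peptide wells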
Target sequence (P21462 whole entry, looked up): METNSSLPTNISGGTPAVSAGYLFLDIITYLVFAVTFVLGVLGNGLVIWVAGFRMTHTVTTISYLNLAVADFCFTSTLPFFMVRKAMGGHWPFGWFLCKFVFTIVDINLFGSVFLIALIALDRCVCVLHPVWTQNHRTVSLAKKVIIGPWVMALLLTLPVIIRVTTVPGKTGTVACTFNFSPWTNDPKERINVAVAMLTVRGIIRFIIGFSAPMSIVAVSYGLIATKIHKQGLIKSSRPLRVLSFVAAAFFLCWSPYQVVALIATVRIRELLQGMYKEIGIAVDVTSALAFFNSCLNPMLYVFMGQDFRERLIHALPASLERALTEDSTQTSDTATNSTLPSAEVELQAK
VCAM-1 down imaging: inhibitors of TNFa-induced VCAM-1 surface display, imaging, high-content imaging, pooled HUVEC, TNFa stimulus (AID 456) | one-dose inhibition, % at 5 µM; IC50 in µM for titrated hits | 10,000 compounds, 0.2% hits | HUVEC TNFa-induced VCAM-1 surface expression, immunofluorescence imaging; numbers were filed only for top-ranked candidate wells;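 active = top tenth filtered wells with inhibition above zero that passed visual or statistical confirmation; inactive = the rest, including hits rejected on review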;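 also: 0% = stimulated vehicle wells and 100% = unstimulated cells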
* marks the source's active call; other numbers are inactive results; i = inactive; . = no result given.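 The calls were made as follows, unless noted: active = mean above 30%; inconclusive = self-fluorescent; inactive = the rest.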 An excerpt; the hit share may differ from the screen's.

Structure	VCAM-1 augmentation	FPRL1 ligand	VCAM-1 inhibition	FPR ligand	VCAM-1 down imaging
FC(F)(F)c1cccc(N2CCN(Cc3cccnc3)CC2)c1	i	-1	i	-4	i
CC(=O)c1cc(Cl)ccc1OC(=O)c1ccco1	i	-2	i	-1	i
Cc1cccc(N(C)C(=O)CCS(=O)(=O)c2cccc3nonc23)c1	.	10	.	1	.
COc1ccc(N(CC(=O)N2CCc3ccccc32)S(=O)(=O)c2c(C)n[nH]c2C)cc1	.	5	.	4	.
Cc1[nH]c(=O)[nH]c(=O)c1S(=O)(=O)NCC12CC3CC(CC(C3)C1)C2	.	-3	.	-6	.
COc1cccc(-c2cc(C(=O)N3CCCCC3C)no2)c1 (stereo not drawn)	.	0	.	-4	.
Nc1ccccc1NC(=O)c1ccccc1N	.	4	.	-4	.
Cc1c(NC(=O)C2(c3ccccc3)CCOCC2)c(=O)n(-c2ccccc2)n1C	i	0	i	-6	i
CCOc1ccc(-n2c(Cc3cc(=O)[nH]c(=O)[nH]3)nnc2SCC)cc1	.	-1	.	7	.
CCCCN(CCCC)S(=O)(=O)c1ccc(OC)c2ncccc12	.	17	.	-3	.
O=C1CC(c2ccccc2)n2nc(NC(=O)c3ccccn3)nc2N1 (stereo not drawn)	i	1	i	4	i
COc1ccc(Cc2nnc(Nc3ccc(C)cc3C)[nH]c2=O)cc1	.	10	.	16	.
Cn1c(=O)c2c(SCc3cccc(C(F)(F)F)c3)nc(-c3ccco3)nc2n(C)c1=O	.	-5	.	-1	.
CN(CCNC(=O)CCNC(=O)Cn1ccc2ccccc2c1=O)Cc1ccccc1	.	6	.	-4	.
CCOC(=O)N1CCN(C(=O)CSCC(=O)Nc2nc(-c3cccs3)cs2)CC1	.	-1	.	-2	.
COc1ccc(N2CCN(C(=O)c3cc4c(-c5cccc(OC)c5)nn(C)c4s3)CC2)cc1	.	-2	.	-9	.
O=C(CSc1nnc(-c2ccccc2)o1)N1CCc2ccccc2C1	i	-5	i	-6	i
COCCNS(=O)(=O)c1ccc(-c2ccc(S(=O)(=O)NCCOC)cc2)cc1	.	6	.	0	.
CCCc1nnc(SCC(=O)N2CCOCC2)n1Cc1ccco1	i	-1	i	-6	i
O=C(CN1C(=O)CC(c2ccco2)Sc2ccccc21)NCC1CCCO1 (stereo not drawn)	.	1	.	4	.

2 of the compounds above, with two lines to a compound.
Each structure is followed by: VCAM-1 augmentation, FPRL1 ligand, VCAM-1 inhibition, FPR ligand, VCAM-1 down imaging
> COCCNS(=O)(=O)c1ccc(-c2ccc(S(=O)(=O)NCCOC)cc2)cc1
  ., 6, ., 0, .
> Cn1c(=O)c2c(SCc3cccc(C(F)(F)F)c3)nc(-c3ccco3)nc2n(C)c1=O
  ., -5, ., -1, .

The listing continues:
Structure	VCAM-1 augmentation	FPRL1 ligand	VCAM-1 inhibition	FPR ligand	VCAM-1 down imaging
CCOC(=O)C(C)n1ncn2cccc2c1=O (stereo not drawn)	.	-14	.	-14	.
CCOCCCNC(=O)CS(=O)(=O)Cc1nc(-c2cccc(OC)c2)oc1C	i	-4	i	0	i
CCOC(=O)C1CCCN(c2ncnc3c2cnn3-c2ccc(OC)cc2)C1 (stereo not drawn)	.	-2	.	5	.
N#Cc1nc(COc2ccccc2)oc1NCCN1CCOCC1	i	6	i	5	i
CC(=O)N1CCc2cc(S(=O)(=O)NCCCN3CCN(Cc4ccccc4)CC3)ccc21	.	-1	.	0	.
COc1ccc(S(=O)(=O)Nc2ccc3c(c2)COC3=O)cc1OC	.	5	.	-1	.
O=C(CN1C(=O)c2ccccc2S1(=O)=O)NC1CC2CCC1C2 (stereo not drawn)	.	0	.	-9	.
COc1c2ccoc2nc2c(OC)c(OCC(O)C(C)(C)O)ccc12 (stereo not drawn)	i	10	i	19	i
Oc1ccc(N2CCN(C(c3cccnc3)c3nnnn3Cc3ccccc3)CC2)cc1 (stereo not drawn)	i	-3	i	5	i
Cc1cc(Nc2ccc(C)c(C)c2)n2nc(C)nc2n1	.	0	.	2	.
CC(=O)c1sc(Nc2nc3ccc(F)cc3s2)nc1C	.	-4	.	5	.
COc1nc(OC)nc(N2CCC(C(=O)NCc3cccs3)CC2)n1	i	3	i	-2	i
COCCCN1C(=O)C(=O)/C(=C(/O)c2ccccc2)C1c1ccc(N(C)C)cc1 (stereo not drawn)	.	1	.	15	.
O=C1C(=O)N(CCCn2ccnc2)C(c2cccnc2)/C1=C(/O)c1ccccc1 (stereo not drawn)	.	0	.	0	.
CCOC(=O)c1cc2c(=O)n3cccc(C)c3nc2n(CC2CCCO2)c1=NC(C)=O (stereo not drawn)	i	3	i	5	i
Cc1cc(C)cc(N(CC(=O)N2CCN(Cc3ccccc3)CC2)S(=O)(=O)c2c(C)noc2C)c1	.	3	.	7	.
CCOC(=O)N1CCN(c2c(N3CCc4ccccc43)c(=O)c2=O)CC1	.	5	.	2	.
Cc1sc2ncn(CC(=O)NCCCC(=O)N3CCN(c4ccccn4)CC3)c(=O)c2c1C	.	-1	.	-3	.
CCOC(=O)c1nnsc1NC(C)=O	.	-1	.	0	.
CCn1cc(C(=O)N2CCCC2)c(=O)c2cc(S(=O)(=O)N3CCOCC3)ccc21	i	4	i	-2	i
COc1cc2c(=O)n(Cc3ccccc3)c(=O)n(CC(=O)NCc3ccco3)c2cc1OC	i	-3	i	0	i
CC(C)c1cc(C(=O)Nc2sc3c(c2C#N)CCC3)no1	.	0	.	5	.
CN1CCN(c2nc(-c3ccccc3)c3cc(Cl)ccc3n2)CC1	.	1	.	-6	.
Cc1cccc(NC(=O)c2cc(NC(=O)c3ccco3)ccc2Cl)n1	i	1	i	-4	i
CCN1CCN(S(=O)(=O)c2ccc(S(=O)(=O)N(CC)Cc3ccccc3)cc2)CC1	i	3	i	14	i
CC(C)c1nnc(NC(=O)CCCC(=O)O)s1	.	6	.	0	.
Cc1ccc2oc(=O)c3cc(C(=O)NCCN4CCN(C)CC4)sc3c2c1	.	-3	.	8	.
CC1CCN(c2nc(-c3ccc(F)cc3)cc(C(F)(F)F)n2)CC1	.	2	.	-16	.
COc1ccc(N(CC(=O)Nc2cc(Cl)ccc2OC)S(=O)(=O)c2c(C)noc2C)cc1	.	-1	.	4	.
Cc1ccc(N(C(=O)c2cccs2)C2C=CS(=O)(=O)C2)cc1 (stereo not drawn)	.	-4	.	2	.
CN(C)c1cccc(NC(=O)CCc2ccccc2)c1	i	5	i	9	i
CC(=O)N1CCc2cc(S(=O)(=O)NCCN3CCC(C)CC3)ccc21	.	0	.	-2	.
N#Cc1cc2c(nc1SCC(=O)Nc1sc3c(c1C#N)CCC3)CCCCC2	i	-2	i	-3	i
COc1ccc(N(C)C(=O)CC2(CC(=O)O)CCCCC2)cc1	.	-5	.	4	.
CC(=O)c1cccc(N(CC(=O)N2CCCC2)S(C)(=O)=O)c1	i	11	i	6	i
O=C(O)CN1CCN(Cc2ccccc2Cl)C1=O	.	2	.	4	.
CCOC(=O)N1CCN(C(=O)CN(C2CCCCC2)S(=O)(=O)c2ccc(F)cc2)CC1	i	1	i	-13	i
COCCn1c(=O)[nH]c2cc(C(=O)NCCN3CCN(c4ccccc4F)CC3)ccc2c1=O	.	6	.	-12	.
CCc1ccc(C2CC(c3ccc(C)cc3)Nc3nc(N)nn32)cc1 (stereo not drawn)	.	-2	.	-3	.
CCOC(=O)c1c(C)c(C(=O)NCCN2CCOCC2)c(C)n1CC	.	3	.	2	.
COc1ccc(OC)c(-c2cc(C(=O)N3CCN(c4ncccn4)CC3)c3ccccc3n2)c1	.	-2	.	4	.
COc1ccc(NC(=O)CN2CCN(S(=O)(=O)c3ccc(Cl)cc3)CC2)cc1	i	-2	i	3	i
O=C(C1CCN(S(=O)(=O)N2CCOCC2)CC1)N1CCN(Cc2ccccc2)CC1	.	-5	.	-4	.
CSCCC(NC(=O)C1CCC(C)CC1)C(=O)O (stereo not drawn)	.	-3	.	3	.
Cc1sc2c(c1C)C(=O)NC(c1cccc(O)c1)N2 (stereo not drawn)	.	10	.	-1	.
Cc1ccc(Cl)cc1NC(=O)Cn1cc2c(n1)CCCC2	.	-5	.	-8	.
Cc1ccc(Cl)cc1-n1c(=O)cc(N2CCN(C(=O)c3ccco3)CC2)[nH]c1=O	.	9	.	-5	.
Cc1cc(C(F)F)n2nc(C(=O)Nc3ccc(S(=O)(=O)N4CCCCCC4)cc3)nc2n1	i	-10	i	-6	i
O=c1[nH]nnc2c1sc1nc(N3CCOCC3)c3c(c12)CCCC3	.	-3	.	4	.
COc1cccc(C2C3=C(CCCC3=O)Nc3nc4ccccc4n32)c1OC (stereo not drawn)	.	4	.	-4	.

Following part.
Structure	VCAM-1 augmentation	FPRL1 ligand	VCAM-1 inhibition	FPR ligand	VCAM-1 down imaging
COC(=O)c1ccc(NC(=O)CN2CCN(c3ccc(Cl)cc3)CC2)cc1	i	-4	i	6	i
Cc1ccc(NS(=O)(=O)c2cccc(C(=O)Nc3cc(C)on3)c2)cc1	.	1	.	14	.
O=C(NCC1CCCO1)c1nn2c(c1Cl)NC(c1ccc(F)cc1)CC2C(F)(F)F (stereo not drawn)	.	-3	.	-1	.
Cc1cc(C)c2ccc(N)nc2c1O	i	-2	i	0	i
COC(=O)c1cn[nH]c1N	.	-2	.	-2	.
C=CCn1c(SCCCC)nc(O)cc1=O	.	-6	.	56*	.
Cc1nn(-c2ccc(F)cc2)c(C)c1NS(=O)(=O)c1ccc(Cl)cc1	i	-2	i	3	i
O=C(c1ccc2c(c1)OCO2)N(c1ccc(Cl)cc1)C1C=CS(=O)(=O)C1 (stereo not drawn)	.	2	.	1	.
O=C(Cn1cccc1)N1CCN(c2ccc(F)cc2)CC1	.	0	.	-2	.
NC(=O)c1c(NC(=O)CSc2nnc(-c3ccco3)n2-c2ccccc2)sc2c1CCC2	i	-8	i	0	i
Cc1ccc(Nc2ccc(C(=O)O)cc2N)cc1	.	26	.	17	.
CCN1CCN(c2cc(C)c3cc(NC(=O)c4ccncc4)ccc3n2)CC1	.	16	.	13	.
O=C(Nc1ccc(Cl)c(C(F)(F)F)c1)N1CCCC(O)C1 (stereo not drawn)	i	0	i	-2	i
COC(=O)c1cc2occc2n1CC(=O)Nc1cc(OC)cc(OC)c1	.	2	.	4	.
CCOc1ccc(Nc2nc(Cc3nnc(SCC(N)=O)o3)cs2)cc1	i	-5	i	-1	i
CCN(CC)CC(C)CNC(=O)CC(C(=O)N1CCc2ccccc21)n1ccnc1 (stereo not drawn)	i	0	i	-6	i
CCc1ccc(C2CC(c3ccc(C)cc3)n3nc(N)nc3N2)cc1 (stereo not drawn)	.	5	.	-1	.
COc1ccc(C(=O)COC(=O)CCn2nnc(-c3cccs3)n2)cc1	i	1	i	-3	i
COc1ccccc1C1/C(=C(/O)c2ccc(Cl)cc2)C(=O)C(=O)N1CCN1CCOCC1 (stereo not drawn)	.	-4	.	17	.
CCn1ncc(C2=NOC(C(=O)N3CCN(c4ccccc4)CC3)C2)c1C (stereo not drawn)	.	1	.	-6	.
Cc1c(NC(=O)c2cc(-c3ccc4c(c3)OCO4)on2)c(=O)n(-c2ccccc2)n1C	.	-1	.	-1	.
Cc1cccc(NS(=O)(=O)c2cccc3cccnc23)n1	.	0	.	-2	.
COc1cc2c(cc1OC)C(C(=O)Nc1ccccn1)C(c1cccnc1)N(C)C2=O (stereo not drawn)	.	0	.	2	.
O=C(CCc1ccccc1)Nc1ccncc1	i	2	i	2	i
CCOc1ccccc1NC(=O)CSc1nnc(CNC(=O)c2ccco2)o1	.	1	.	0	.
COc1cccc(C(=O)Nc2ccc(N(C)C)cc2)c1OC	i	-10	i	1	i
